Screening results as filed in PubChem.
T cruzi inh – inhibitors of intracellular T. cruzi growth, primary screen, luminescence, NIH3T3 host cells | T. cruzi beta-gal in NIH3T3, 90 h | AID 1885, 2009 | inhibition, % (no concentration beside the values) | 300,000 compounds, 1.4% hits;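 active = mean inhibition across valid replicates above about 55%, limit read from the data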;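 also: signal also drops with host cell toxicity which is not excluded here; 0% = plate median of DMSO wells and 100% = zero luminescence signal; higher percent means less beta-gal luminescence so fewer parasites; stock transfer was 50 nL into about 50 µL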
LANA-H2B inh – blockers of LANA interaction with H2A/H2B – biochemical, FP readout, HTS, primary screen; Protein LANA1 (Human herpesvirus 8 type P (isolate GK18)), Q9QR71; cell-free LANA-H2A/H2B peptide, fluorescence polarization; 320,000 compounds, 0.6% hits; inhibition, % (test concentration not listed); in the data active = inhibition mostly above about 10%, no sharp cut-off; inactive = mostly below about 6.7%;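 also: stock transfer was 7.5 nL into about 10 µL; 0% = median of vehicle wells and 100% = median of positive control wells; one replicate is shown; the record names a cut of 25% in any replicate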
Calb FLC – C. albicans growth inhibition with fluconazole, primary screen, CaCi-2 strain, Alamar Blue fluorescence; C. albicans CaCi-2 (fluconazole-resistant clinical isolate) + fluconazole, 48 h; growth inhibition, % (test concentration not listed); 300,000 compounds, 0.57% hits; AID 1979, 2009;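 active = most replicates above 75%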;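 also: all wells also contain fluconazole at 8 µg/ml as a sub-toxic cotreatment; 0% = median of DMSO wells and 100% = median of geldanamycin control wells; wells of about 8 µL received 7.5 nL stock; the first replicate is given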
B2AR ag – beta2AR agonists driving receptor internalization, primary screen, cell-based, FAP fluorogen, flow cytometry; 340,000 compounds, 0.43% hits; AID 504454, 2011; response, % (test concentration not listed); Beta-2 adrenergic receptor (Homo sapiens), P07550; Am2.2-beta2AR cells; reference of the scale not given here;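 active = response above a set limit, near 3 SD of response in nonfluorescent compounds, cut at about 42% in these data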;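 also: stock transfer was 100 nL into about 11 µL; a reference agonist was the positive control; negative values mostly stem from fluorescent compounds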
Target sequence (P07550 whole entry, looked up): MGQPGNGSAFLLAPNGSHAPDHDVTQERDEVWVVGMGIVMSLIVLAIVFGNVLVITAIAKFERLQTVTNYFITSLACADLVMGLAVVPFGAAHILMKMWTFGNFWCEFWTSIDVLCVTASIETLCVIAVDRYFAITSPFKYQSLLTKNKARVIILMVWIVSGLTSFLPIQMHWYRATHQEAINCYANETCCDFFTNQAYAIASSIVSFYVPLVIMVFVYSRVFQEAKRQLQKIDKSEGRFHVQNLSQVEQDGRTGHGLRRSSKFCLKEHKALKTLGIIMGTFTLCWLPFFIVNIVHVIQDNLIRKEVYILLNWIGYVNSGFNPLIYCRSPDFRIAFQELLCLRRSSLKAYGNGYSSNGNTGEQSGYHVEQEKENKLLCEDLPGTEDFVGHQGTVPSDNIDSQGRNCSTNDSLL
* = called active by the depositor; . = no result given. Some of the compounds tested; the hit share may differ from the screen's.

SMILES | T cruzi inh | LANA-H2B inh | Calb FLC | B2AR ag
Cc1nnc(SCCN2CCOCC2)c2nn(-c3ccccc3F)c(C)c12 | 5 | . | -38 | 5
O=c1[nH]c2cc3c(cc2cc1CN(Cc1ccccc1)Cc1nnnn1Cc1ccco1)OCCO3 | 15 | . | 7 | -13
CC(=O)N(Cc1ccc(F)cc1)C1=C(NCc2ccccc2)C(=O)c2ccccc2C1=O | 67* | . | 89* | 18
Cc1nnc(SCC(=O)N2CCC(C(=O)Nc3nccs3)CC2)n1Cc1ccccc1 | -10 | . | -3 | -13
CC1(C)Cc2cccc(OCC(O)CN3CCN(c4ccccn4)CC3)c2O1 (stereo unspecified) | 13 | . | -19 | -7
O=C1CC(c2ccco2)CC(O)=C1C=NCCN1CCN(C2CC(=O)N(c3ccccc3)C2=O)CC1 (stereo unspecified) | -13 | . | -9 | -7
Cc1ccc(SC[C@H](c2ccccc2)N2CCN(C)CCC2=O)cc1 | -16 | . | -8 | 0
COc1ccc(C2=NOC(C(=O)NC(C)(C)C)C2)cc1 (stereo unspecified) | 8 | . | 16 | 4
CCOC(=O)CSc1nnc(CNC(=O)c2cccs2)n1-c1cc(OC)ccc1OC | -6 | . | -1 | -10
Cn1c(=O)c2c(nc(CN3CCN(c4ccccc4)CC3)n2Cc2ccccc2Cl)n(C)c1=O | 7 | . | 5 | -9
CC(C)C(=O)Nc1c(-c2cccs2)c(=O)c2ccccc2n1C | 1 | . | 4 | -8
N#CC1=C(N)Oc2n[nH]c(-c3ccc(F)cc3)c2C1c1cccnc1 (stereo unspecified) | -22 | . | 9 | -5
Cc1cc(C)n(-c2nc3ccccc3c(=O)n2OCC(=O)OCc2ccccc2)n1 | -33 | . | 0 | 6
CC(C)CN1C(=O)c2ccc(NC(=O)c3ccccc3F)cc2C1=O | -4 | . | 0 | -4
Cc1ccc(-c2nn3c(C)nnc3s2)cc1NC(=O)c1ccc(-c2cccc(Cl)c2)o1 | 22 | . | -9 | 15
CCn1c(=O)c2c(nc(SCc3ccccn3)n2C)n(C)c1=O | -11 | . | 4 | 6
COc1ccc(N2CCN(C(c3cccs3)c3nnnn3C3CCCC3)CC2)cc1 (stereo unspecified) | 20 | . | 0 | 11
CCC1CC2(C)NC(=O)c3c(sc4c3CC(C)(C)OC4)N2C1=O (stereo unspecified) | -1 | . | -7 | -5
Cc1ccc(-c2csc(/C(C#N)=C(\O)CCl)n2)cc1 | 21 | . | 27 | 11
Cc1occc1-c1nnc(SCC(=O)N2CCCc3ccccc32)n1Cc1ccco1 | 11 | . | -5 | -3
COc1ccc(-n2c(C)c(C(C)=O)c3cc(O)ccc32)cc1 | -22 | . | 4 | -7
FC(F)Oc1ccc(-c2csc(Cc3nnc4n3CCCCC4)n2)cc1 | 0 | . | -39 | 2
CC1CCN(C(=O)CSc2nc(N)c3c4c(sc3n2)CN(C)CC4)CC1 | 11 | . | -7 | -5
CC(C)c1nc2oc3c(NCC4CCCO4)ncnc3c2c2c1COC(C)(C)C2 (stereo unspecified) | 8 | . | 7 | -4
CCOc1ccc(S(=O)(=O)NCCC2=CCCCC2)c2ccccc12 | 15 | . | 2 | -15
COc1ccccc1NC(=O)C1=C(C)NC(SCC(=O)c2ccccc2)=C(C#N)C1c1ccco1 (stereo unspecified) | 28 | . | 9 | 7
CN1C(=O)C(Cl)(Cl)C(=O)c2ccccc21 | -8 | . | 1 | 0
COCCn1c(Sc2nc(C)cs2)nc2c1c(=O)[nH]c(=O)n2C | -7 | . | -17 | 8
COC(=O)c1cc(C(=O)OC)cc(N2C(=O)CC(N3CCN(c4ccccc4)CC3)C2=O)c1 (stereo unspecified) | -17 | . | -3 | 1
C=CCn1c(N)c(C(=O)OC(C)(C)C)c2nc3ccccc3nc21 | 0 | . | -1 | -2
COc1cccc(C(=O)N2CCN(C3CCC(c4ccccc4)CC3)CC2)c1 (stereo unspecified) | 28 | . | 7 | 1
CCCCn1c(SCN2C(=O)c3ccccc3C2=O)nc2cc(S(N)(=O)=O)ccc21 | 0 | . | 0 | -8
COc1cccc(C(=O)CSc2nnc(CNS(=O)(=O)c3ccc(C)cc3)n2C)c1 | 3 | . | -9 | -1
Cc1cc(C)nc(N2CCCC(C(=O)Nc3nc4ccc(S(C)(=O)=O)cc4s3)C2)n1 (stereo unspecified) | -2 | . | 25 | 9
CC(C)CC1=NN2C(=N)/C(=C\c3coc4ccccc4c3=O)C(=O)N=C2S1 | 4 | . | 6 | -3
FC(F)(F)COc1nc(N2CCOCC2)nc(N(c2ccccc2)c2ccccc2)n1 | 45 | . | 2 | 3
COc1ccc(-c2cc(C(=O)NCC(C)C)no2)cc1 | -7 | . | 10 | 0
NC(=S)c1cc2ccc(O)cc2oc1=O | -3 | . | -14 | 13
NC(=O)/C(=N\OC(=O)c1ccco1)c1nc(-c2ccc(Br)cc2)cs1 | 8 | . | 14 | 29
COc1ccc(N(/N=C2\Sc3ccccc3C2=O)C(C)=O)cc1 | -16 | . | -24 | -1

Compound profiles, as listed above:
COc1ccc(N(/N=C2\Sc3ccccc3C2=O)C(C)=O)cc1 across the screens: T cruzi inh: -16; LANA-H2B inh: .; Calb FLC: -24; B2AR ag: -1
NC(=O)/C(=N\OC(=O)c1ccco1)c1nc(-c2ccc(Br)cc2)cs1 across the screens: T cruzi inh: 8; LANA-H2B inh: .; Calb FLC: 14; B2AR ag: 29

The results go on:
SMILES | T cruzi inh | LANA-H2B inh | Calb FLC | B2AR ag
Cc1ccc(S(=O)(=O)N2CCOCC(=O)NCCOCCNC(=O)COCC2)cc1 | -11 | . | -2 | -3
COc1c(F)c(F)c(C(=O)Nc2ccc(N3CCN(C(C)=O)CC3)c(Cl)c2)c(F)c1F | -2 | . | -1 | 10
COC(=O)c1ccc(Oc2nc(Nc3ccc(C)c(C)c3)nc(N(C)C)n2)cc1 | 22 | . | 0 | -3
COC(=O)c1sc2ccccc2c1C(=O)OC | 1 | . | 4 | -3
N#CC1=C(Nc2ccccc2)SC=C(c2ccccc2)N=C1N1CCOCC1 | -1 | . | -7 | -9
Cc1cc(C)cc(OCC(=O)O/N=C(\N)c2cccnc2)c1 | 11 | . | 5 | 3
COc1ccc(OC)c(NC(=O)C2CCN(c3cc(-c4ccccc4)nc4ncnn34)CC2)c1 | 0 | . | 4 | 12
CCOc1ccc(NC(=O)CN2CCN(CC(=O)c3ccc(OCC)cc3)CC2)cc1 | 14 | . | 5 | -9
COc1ccc2nc(NC(=O)CCc3nc(-c4ccccc4F)no3)sc2c1 | -9 | . | 4 | 9
COc1cc(NCCCC(C)N)c2ncccc2c1 (stereo unspecified) | 45 | . | 1 | 15

A section of the results above, as a working copy:
SMILES | T cruzi inh | LANA-H2B inh | Calb FLC | B2AR ag
COc1ccc(OC)c(NC(=O)C2CCN(c3cc(-c4ccccc4)nc4ncnn34)CC2)c1 | 0 | . | 4 | 12
CCOc1ccc(NC(=O)CN2CCN(CC(=O)c3ccc(OCC)cc3)CC2)cc1 | 14 | . | 5 | -9
COc1ccc2nc(NC(=O)CCc3nc(-c4ccccc4F)no3)sc2c1 | -9 | . | 4 | 9
COc1cc(NCCCC(C)N)c2ncccc2c1 (stereo unspecified) | 45 | . | 1 | 15

Additional results follow:
SMILES | T cruzi inh | LANA-H2B inh | Calb FLC | B2AR ag
COc1ccc(C2/C=C\CN(C(=O)CC(C)C)CC(=O)N2Cc2ccc(F)cc2)cc1 (stereo unspecified) | -9 | . | -4 | -3
c1ccc(-n2nnnc2SCc2cn3cccnc3n2)cc1 | -9 | . | 27 | -6
Cc1nc(N2CCN(C(c3ccccc3)c3ccccc3)CC2)[nH]c(=O)c1C | 14 | . | 4 | 14
C=C(C)CSC1=C(C#N)C(c2ccccc2Cl)CC(=O)N1 (stereo unspecified) | -3 | . | 14 | 17
Cc1n[nH]c(=S)c2nn(-c3ccccc3F)c(C)c12 | -20 | . | -8 | 2
COc1ccc(NC(=O)/C(Cl)=C(/Cl)S(=O)(=O)Cc2ccc(C)cc2)cn1 | 3 | . | -1 | 62*
COc1ccc(N2CCN(S(=O)(=O)c3ccc(C(=O)NCc4ccco4)cc3)CC2)cc1 | -18 | . | -11 | 3
O=C(OCC(=O)N1CCN(c2ccccc2)CC1)c1ccco1 | -7 | . | -12 | 0
CCOC(=O)CC(=O)CSc1ccc2nnc(-c3ccc(C)cc3)n2n1 | 11 | . | -19 | 15
CCOc1ccc2nc(NC(=S)NCc3ccccc3)sc2c1 | 49 | . | -2 | 0

Among those listed so far, two have a tert-butyl group:
SMILES | T cruzi inh | LANA-H2B inh | Calb FLC | B2AR ag
COc1ccc(C2=NOC(C(=O)NC(C)(C)C)C2)cc1 (stereo unspecified) | 8 | . | 16 | 4
C=CCn1c(N)c(C(=O)OC(C)(C)C)c2nc3ccccc3nc21 | 0 | . | -1 | -2

Other entries
SMILES | T cruzi inh | LANA-H2B inh | Calb FLC | B2AR ag
COc1cc(C(=O)Nc2cccc(-c3nc4ccccc4o3)c2C)cc(OC)c1OC | -1 | . | -12 | 7
COc1cc(NS(=O)(=O)c2ccc(NC(=O)COc3ccc(C)cc3C)cc2)nc(OC)n1 | -6 | . | 27 | 10
O=C(Cn1c(=O)n(CCC(=O)N2CCc3ccccc3C2)c(=O)c2ccccc21)NCC1CCCO1 (stereo unspecified) | -15 | . | 0 | -2
C/C(=N\Nc1ncc(Cl)cc1Cl)c1ccccn1 | 69* | . | 98* | -267
COCCn1nnnc1C(c1ccc(C)cc1)N1CCN(Cc2ccc3c(c2)OCO3)CC1 (stereo unspecified) | 22 | . | -6 | 7
COC(=O)c1cc(NC(=O)C2C3C=CC(C3)C2C(=O)O)cc(C(=O)OC)c1 (stereo unspecified) | 2 | . | 10 | 1
Cc1ccc(-c2cc(C(F)(F)F)n3ncc(C(=O)O)c3n2)cc1 | -16 | . | -1 | 0
COc1ccc(N(C(=O)c2ccncc2)S(=O)(=O)c2ccc(Cl)cc2)cc1 | -5 | . | -5 | -1
Cc1cc(C)c2c(N)c(C(=O)c3ccccc3)oc2n1 | -15 | . | 2 | -15
CC1CN(S(=O)(=O)c2ccccc2)C(C)CN1S(=O)(=O)c1ccccc1 (stereo unspecified) | 3 | . | 3 | -11
O=c1[nH]c(O)c(C=Nc2ccc(Cl)cc2Cl)c(=O)[nH]1 | -7 | . | -4 | -15
Cc1cc(Oc2ccccc2F)nc(NCc2ccccc2)n1 | 17 | . | -10 | -4
Cc1ccc(C)c(S(=O)(=O)Nc2ccc(S(=O)(=O)Nc3onc(C)c3C)cc2)c1 | -17 | . | 1 | 4
Cc1ccc(S(=O)(=O)N2CCN(S(=O)(=O)c3ccccc3)C2)cc1 | -2 | . | -9 | 10
O=C(CSCc1cnn(-c2ccccc2)c1-n1cccc1)NCc1ccc2c(c1)OCO2 | 9 | . | -20 | 0
O=C(CSc1nn(-c2ccc(F)cc2)c(=S)s1)N1CCN(C(=O)c2ccco2)CC1 | 5 | . | -8 | -2
Nc1cccc2nc3ccccc3cc12 | 43 | -35 | . | 7
